Screening data (PubChem BioAssay)
A1 apoptosis 2 = A1 inhibition read as caspase activation; 24,000 tested, under 10 active; caspase activation, % (concentration not given with the values); MEF A1-2A-BIM cells, caspase-Glo luminescence, 3 h; percent of clofoctol response, DMSO zero; AID 2465; in the data active = caspase activation above about 5.9%;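 also: wells of about 30 µL received 50 nL stock; the first replicate is given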
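Evaluation: Caspase-3/7 activity from luminescence increase | Assay system: A1-2A-BIM mouse embryonic fibroblasts | Quantity: 2500 MEF cells/well | Medium: RPMI-1640 plus 10% FBS | Detection: Caspase-Glo 3/7 luminescence, 1 h at room temperature | Dosing: 50 nL compound per well, pinned | Timing: Cells settled overnight, compound exposure 3 h at 37 °C, 5% CO2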
* hit, by the source's call.

SMILES	A1 apoptosis 2
C[C@H]1CCCCO[C@@H](CN(C)C(=O)c2ccccc2)[C@@H](C)CN([C@@H](C)CO)C(=O)c2cc(NS(=O)(=O)c3cccs3)ccc2O1	2.0
C[C@@H]1CN([C@@H](C)CO)C(=O)Cc2cc(NC(=O)CCCN(C)C)ccc2O[C@H]1CN(C)Cc1ccc(-c2ccccc2)cc1	-0.5
C[C@H](CO)N1C[C@H](C)[C@H](CN(C)Cc2ccncc2)OCCCC[C@H](C)Oc2ccc(NC(=O)Nc3cccc4ccccc34)cc2C1=O	1.0
COc1ccc(CN(C)C[C@@H]2Oc3ccc(NC(=O)Nc4cccc5ccccc45)cc3C(=O)N([C@H](C)CO)C[C@@H]2C)cc1	1.0
COc1ccc(O)c(/C=N/NC(=O)c2ccccc2O)c1	-2.7
C[C@@H]1CN([C@H](C)CO)C(=O)c2cc(NC(=O)Nc3ccc4c(c3)OCO4)ccc2O[C@@H]1CN(C)C(=O)Nc1ccccc1	-0.4
C[C@H](CO)N1C[C@H](C)[C@H](CN(C)C(=O)Nc2ccccc2)Oc2ncc(/C=C/c3ccccc3)cc2C1=O	0.5
Cc1noc(C)c1NC(=O)N(C)C[C@H]1Oc2ccc(NC(=O)C3CC3)cc2C(=O)N([C@H](C)CO)C[C@@H]1C	-0.3
C[C@@H]1CN([C@H](C)CO)C(=O)CCCn2nncc2CO[C@H]1CN(C)C(=O)Nc1ccccc1C(F)(F)F	-1.1
C[C@@H]1CN([C@H](C)CO)C(=O)c2cc(NC(=O)Nc3ccc(F)cc3)ccc2O[C@H]1CN(C)C	0.5
COc1ccc(CN(C)C[C@H]2OCCCC[C@H](C)Oc3ccc(NC(=O)c4ccncc4)cc3C(=O)N([C@H](C)CO)C[C@@H]2C)cc1	-0.1
C[C@H]1CCCCO[C@H](CN(C)S(=O)(=O)c2cccs2)[C@@H](C)CN([C@@H](C)CO)C(=O)c2cc(NC(=O)Cc3ccccc3)ccc2O1	-0.6
C[C@@H]1CCCCO[C@@H](CN(C)C(=O)Nc2ccc(C(F)(F)F)cc2)[C@H](C)CN([C@@H](C)CO)C(=O)c2cc(NS(=O)(=O)c3ccc(Cl)cc3)ccc2O1	0.0
C[C@@H]1CN([C@@H](C)CO)C(=O)c2cccc(NS(=O)(=O)c3cccs3)c2O[C@H]1CN(C)Cc1ccc(C(=O)O)cc1	1.1
C[C@H]1CN([C@@H](C)CO)C(=O)Cc2cc(NS(=O)(=O)c3ccccc3)ccc2O[C@H]1CN(C)C(=O)Nc1ccccc1	0.2
CCOC(=O)N(C)C[C@@H]1OCc2cnnn2CCCC(=O)N([C@@H](C)CO)C[C@@H]1C	0.1
C[C@H](CO)N1C[C@H](C)[C@H](CN(C)Cc2ccc3c(c2)OCO3)Oc2c(NC(=O)Nc3ccccc3)cccc2C1=O	-0.8
C[C@@H]1CN([C@H](C)CO)C(=O)Cc2cc(NC(=O)Nc3ccc(F)cc3)ccc2O[C@@H]1CN(C)C(=O)Nc1ccc2c(c1)OCO2	0.6
C[C@H](CO)N1C[C@H](C)[C@@H](CN(C)Cc2ccc(Cl)c(Cl)c2)Oc2c(NC(=O)Nc3ccc(C(F)(F)F)cc3)cccc2C1=O	-1.1
C[C@H]1CCCCO[C@H](CN(C)C(=O)C2CCCCC2)[C@@H](C)CN([C@@H](C)CO)C(=O)c2cc(NC(=O)C3CCCCC3)ccc2O1	-1.5
C[C@H](CO)N1C[C@H](C)[C@H](CN(C)Cc2ccncc2)Oc2ccc(NC(=O)Cc3ccccc3)cc2C1=O	-0.9
COc1ccc(S(=O)(=O)Nc2ccc3c(c2)C(=O)N([C@@H](C)CO)C[C@@H](C)[C@H](CN(C)S(=O)(=O)c2ccc(F)cc2)O3)cc1	0.6
COc1ccc(S(=O)(=O)N(C)C[C@@H]2OCCCC[C@H](C)Oc3ccc(NC(=O)c4ccccc4)cc3C(=O)N([C@@H](C)CO)C[C@H]2C)cc1	0.2
C[C@@H]1CN([C@@H](C)CO)C(=O)Cc2cc(NC(=O)Nc3ccccc3)ccc2O[C@@H]1CN(C)S(=O)(=O)c1ccc(Cl)cc1	0.8
C[C@@H]1CN([C@@H](C)CO)C(=O)CCCn2cc(nn2)CO[C@@H]1CN(C)C(=O)Nc1ccc(C(C)(C)C)cc1	-0.7
Other records follow:
SMILES	A1 apoptosis 2
C[C@H]1CN([C@@H](C)CO)C(=O)Cc2cc(NS(C)(=O)=O)ccc2O[C@@H]1CN(C)CC1CCCCC1	-0.2
C[C@H](CO)N1C[C@H](C)[C@H](CN(C)C(=O)Nc2ccc(C(F)(F)F)cc2)Oc2ccc(NC(=O)Nc3ccccc3)cc2C1=O	0.1
C[C@@H]1CN([C@H](C)CO)C(=O)c2cc(NC(=O)C3CCCCC3)ccc2O[C@H]1CN(C)S(=O)(=O)c1ccc(Cl)cc1	-0.7
COc1ccc(CN(C)C[C@H]2Oc3c(NC(=O)NC(C)C)cccc3C(=O)N([C@@H](C)CO)C[C@H]2C)cc1	-1.0
C[C@@H]1CCCCO[C@H](CN(C)S(C)(=O)=O)[C@@H](C)CN([C@@H](C)CO)C(=O)c2cc(NC(=O)c3ccncc3)ccc2O1	1.5
C[C@@H]1CCCCO[C@H](CN(C)S(=O)(=O)c2ccccc2)[C@@H](C)CN([C@@H](C)CO)C(=O)c2cc(NC(=O)c3ccccc3)ccc2O1	1.2
COc1ccc(C#Cc2cnc3c(c2)C(=O)N([C@H](C)CO)C[C@H](C)[C@H](CN(C)Cc2ccncc2)O3)cc1OC	-0.1
Cc1noc(C)c1NC(=O)N(C)C[C@@H]1Oc2ccc(NS(=O)(=O)c3cccs3)cc2C(=O)N([C@@H](C)CO)C[C@@H]1C	-1.3
C[C@@H]1CN([C@@H](C)CO)C(=O)c2cccc(NC(=O)Nc3ccc(F)cc3)c2O[C@@H]1CN(C)C	-0.5
C[C@@H]1CN([C@H](C)CO)C(=O)c2cc(NC(=O)c3ccccc3)ccc2O[C@@H](C)CCCCO[C@H]1CN(C)Cc1ccc(C(=O)O)cc1	-0.8
C[C@@H]1CN([C@@H](C)CO)C(=O)CCCn2nncc2CO[C@@H]1CN(C)CC1CC1	-0.8
C[C@@H]1CCCCO[C@H](CN(C)C(=O)CCC(F)(F)F)[C@@H](C)CN([C@H](C)CO)C(=O)c2cc(NS(=O)(=O)c3cn(C)cn3)ccc2O1	-0.8
C[C@@H]1CN([C@@H](C)CO)C(=O)c2cc(NC(=O)C3CC3)ccc2O[C@@H]1CN(C)Cc1ccc(Cl)c(Cl)c1	1.1
Cc1noc(C)c1S(=O)(=O)N(C)C[C@@H]1OCCCC[C@H](C)Oc2ccc(NC(=O)C3CCCCC3)cc2C(=O)N([C@H](C)CO)C[C@@H]1C	0.2
C[C@H](CO)N1C[C@H](C)[C@H](CN(C)Cc2ccc3c(c2)OCCN3C)OCc2cnnn2CCCC1=O	-0.5
C[C@@H]1CN([C@H](C)CO)C(=O)c2cc(N(C)C)ccc2O[C@H]1CN(C)S(=O)(=O)c1cn(C)cn1	-0.1
C[C@@H]1CN([C@@H](C)CO)C(=O)c2cccc(NC(=O)Nc3cccc4ccccc34)c2O[C@H]1CN(C)S(C)(=O)=O	-0.6
C[C@@H]1CN([C@H](C)CO)C(=O)c2cc(NC(=O)NC3CCCCC3)ccc2O[C@@H]1CN(C)C	0.4
C[C@@H]1CCCCO[C@@H](CN(C)C(=O)Nc2ccc(F)cc2)[C@@H](C)CN([C@@H](C)CO)C(=O)c2cc(NC(=O)Nc3ccc(C(F)(F)F)cc3)ccc2O1	-0.5
CNC[C@@H]1Oc2c(NC(=O)c3cnccn3)cccc2C(=O)N([C@@H](C)CO)C[C@H]1C	0.4
C[C@@H]1CCCCO[C@@H](CN(C)S(=O)(=O)c2ccccc2)[C@@H](C)CN([C@H](C)CO)C(=O)c2cc(NS(=O)(=O)c3ccc(F)cc3)ccc2O1	0.2
C[C@H](CO)N1C[C@H](C)[C@@H](CN(C)C(=O)Nc2cccc3ccccc23)Oc2ccc(NS(=O)(=O)c3cccs3)cc2C1=O	1.0
COc1ccc(S(=O)(=O)N(C)C[C@@H]2OCCCC[C@@H](C)Oc3ccc(NS(=O)(=O)c4ccc(Cl)cc4)cc3C(=O)N([C@H](C)CO)C[C@@H]2C)cc1	-0.7
C[C@@H]1CN([C@@H](C)CO)C(=O)c2cc(NC(=O)Nc3ccccc3)ccc2O[C@@H](C)CCCCO[C@H]1CN(C)S(=O)(=O)c1cccs1	-0.1
C[C@@H]1CN([C@H](C)CO)C(=O)c2cc(NS(=O)(=O)c3ccc(F)cc3)ccc2O[C@@H](C)CCCCO[C@@H]1CN(C)S(=O)(=O)c1cccs1	1.9
(cont.)
SMILES	A1 apoptosis 2
C[C@H]1CN([C@@H](C)CO)C(=O)Cc2cc(NC(=O)Cc3ccccc3)ccc2O[C@H]1CN(C)CC1CCCCC1	0.3
CNC[C@@H]1OCCCC[C@H](C)Oc2ccc(N)cc2C(=O)N([C@@H](C)CO)C[C@H]1C	0.7
C[C@@H]1CN([C@H](C)CO)C(=O)CCCn2nncc2CO[C@@H]1CN(C)Cc1ccncc1	0.0
Cc1noc(C)c1NC(=O)Nc1ccc2c(c1)CC(=O)N([C@H](C)CO)C[C@@H](C)[C@H](CN(C)CC1CCCCC1)O2	-0.1
COc1ccc(S(=O)(=O)Nc2cccc3c2O[C@@H](CN(C)Cc2ccc4c(c2)OCO4)[C@@H](C)CN([C@H](C)CO)C3=O)cc1	1.3
COc1ccc(NC(=O)N(C)C[C@@H]2OCCCC[C@H](C)Oc3ccc(NC(=O)Nc4ccc(C(F)(F)F)cc4)cc3C(=O)N([C@@H](C)CO)C[C@H]2C)cc1	0.8
O=C(CCCCCC(=O)Nc1ccccc1O)N/N=C/c1ccc2c(c1)CCO2	-0.8
Cc1noc(C)c1S(=O)(=O)Nc1ccc2c(c1)C(=O)N([C@@H](C)CO)C[C@H](C)[C@H](CN(C)C(=O)Nc1ccc3c(c1)OCO3)OCCCC[C@H](C)O2	-1.5
C[C@@H]1CN([C@H](C)CO)C(=O)c2cc(NS(C)(=O)=O)ccc2O[C@@H](C)CCCCO[C@H]1CN(C)S(=O)(=O)c1ccc(Cl)cc1	0.0
C[C@H]1CN([C@@H](C)CO)C(=O)c2cc(NS(=O)(=O)c3cccs3)ccc2O[C@@H]1CN(C)Cc1ccccc1	0.3
Cc1noc(C)c1NC(=O)N(C)C[C@H]1Oc2ccc(NS(=O)(=O)c3ccccc3)cc2CC(=O)N([C@H](C)CO)C[C@H]1C	1.7
Cc1ccc(S(=O)(=O)Nc2ccc3c(c2)C(=O)N([C@@H](C)CO)C[C@@H](C)[C@@H](CN(C)S(=O)(=O)c2ccc(Cl)cc2)O3)cc1	-1.0
C[C@H](CO)N1C[C@H](C)[C@@H](CN(C)S(=O)(=O)c2ccccc2)Oc2ccc(NC(=O)Nc3ccc(F)cc3)cc2CC1=O	-0.1
C[C@@H]1CN([C@@H](C)CO)C(=O)Cc2cc(NS(C)(=O)=O)ccc2O[C@@H]1CN(C)S(=O)(=O)c1cn(C)cn1	0.2
C[C@H](CO)N1C[C@H](C)[C@@H](CN(C)Cc2ccc(-c3ccccc3)cc2)Oc2ccc(NC(=O)Nc3ccc(F)cc3)cc2C1=O	-1.4
C[C@@H]1CN([C@H](C)CO)C(=O)c2cccc(NS(=O)(=O)c3cccs3)c2O[C@H]1CN(C)Cc1ccc(Cl)c(Cl)c1	-0.1
COc1ccc(S(=O)(=O)Nc2ccc3c(c2)C(=O)N([C@@H](C)CO)C[C@@H](C)[C@@H](CN(C)Cc2ccncc2)OCCCC[C@@H](C)O3)cc1	-0.4
CNC[C@@H]1Oc2ccc(NS(=O)(=O)c3ccc(Cl)cc3)cc2CC(=O)N([C@H](C)CO)C[C@H]1C	0.8
COc1ccc(S(=O)(=O)N(C)C[C@@H]2Oc3ccc(NC(=O)c4ccncc4)cc3C(=O)N([C@H](C)CO)C[C@@H]2C)cc1	-1.9
COc1ccc(NC(=O)N(C)C[C@@H]2Oc3ccc(NS(=O)(=O)c4ccc(Cl)cc4)cc3C(=O)N([C@H](C)CO)C[C@@H]2C)cc1	0.3
COc1ccc(-c2cnc3c(c2)C(=O)N([C@H](C)CO)C[C@H](C)[C@H](CN(C)S(C)(=O)=O)O3)cc1	0.2
COc1ccc(NC(=O)Nc2ccc3c(c2)C(=O)N([C@@H](C)CO)C[C@@H](C)[C@@H](CN(C)Cc2ccncc2)O3)cc1	0.2

Quoted from the entries so far, 10 compounds:
SMILES	A1 apoptosis 2
O=C(CCCCCC(=O)Nc1ccccc1O)N/N=C/c1ccc2c(c1)CCO2	-0.8
Cc1noc(C)c1S(=O)(=O)Nc1ccc2c(c1)C(=O)N([C@@H](C)CO)C[C@H](C)[C@H](CN(C)C(=O)Nc1ccc3c(c1)OCO3)OCCCC[C@H](C)O2	-1.5
C[C@@H]1CN([C@H](C)CO)C(=O)c2cc(NS(C)(=O)=O)ccc2O[C@@H](C)CCCCO[C@H]1CN(C)S(=O)(=O)c1ccc(Cl)cc1	0.0
C[C@H]1CN([C@@H](C)CO)C(=O)c2cc(NS(=O)(=O)c3cccs3)ccc2O[C@@H]1CN(C)Cc1ccccc1	0.3
Cc1noc(C)c1NC(=O)N(C)C[C@H]1Oc2ccc(NS(=O)(=O)c3ccccc3)cc2CC(=O)N([C@H](C)CO)C[C@H]1C	1.7
Cc1ccc(S(=O)(=O)Nc2ccc3c(c2)C(=O)N([C@@H](C)CO)C[C@@H](C)[C@@H](CN(C)S(=O)(=O)c2ccc(Cl)cc2)O3)cc1	-1.0
C[C@H](CO)N1C[C@H](C)[C@@H](CN(C)S(=O)(=O)c2ccccc2)Oc2ccc(NC(=O)Nc3ccc(F)cc3)cc2CC1=O	-0.1
C[C@@H]1CN([C@@H](C)CO)C(=O)Cc2cc(NS(C)(=O)=O)ccc2O[C@@H]1CN(C)S(=O)(=O)c1cn(C)cn1	0.2
C[C@H](CO)N1C[C@H](C)[C@@H](CN(C)Cc2ccc(-c3ccccc3)cc2)Oc2ccc(NC(=O)Nc3ccc(F)cc3)cc2C1=O	-1.4
C[C@@H]1CN([C@H](C)CO)C(=O)c2cccc(NS(=O)(=O)c3cccs3)c2O[C@H]1CN(C)Cc1ccc(Cl)c(Cl)c1	-0.1

Some of the compounds tested; the hit share may differ from the screen's.
